A1 inhib – blocks A1 activity. caspase activation, % (concentration not given with the values). MEF A1-2A-BIM cells, caspase-Glo luminescence, 3 h; percent of clofoctol signal, DMSO as zero. AID 2241. hit rate 0.51% among 21,000;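 active = most replicate scores above 10, or exactly half above 10 with mean activity above 10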;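 note: effector caspase 3 and 7 activity cleaving a DEVD luciferin substrate; 50 nL library stock added to about 30 µL; numbers are from one replicate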
BJeLR viability – lowers viability of BJeLR cells. viability loss activity score, % (no concentration beside the values). BJeLR fibroblasts viability, CellTiterGlo ATP luminescence, 48 h; HRASV12, hTERT and SV40 LT/ST transformed. AID 2275. hit rate 0.64% among 30,000; in the data active = viability loss activity score above about 50%; about a fifth of its hits are not listed in these tables;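 note: higher score means fewer live cells and less ATP luminescence; stock transfer was 50 or 100 nL into about 30 µL; 0% = vehicle wells and 100% = a reference killing control; one replicate is shown; the record names a cut of 85%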
* marks the source's active call; other numbers are inactive results; · = not tested or not shown. Only part of the results is shown. The share of hits here may be higher or lower than overall.

mol,A1 inhib,BJeLR viability
C[C@@H]1CN([C@H](C)CO)C(=O)c2cccc(NS(C)(=O)=O)c2O[C@H]1CN(C)Cc1ccc2c(c1)OCO2,·,-2.8
CCC(C)C(=O)OCC1(c2ccc(C)cc2OC(=O)C(C)C)CO1 (stereo not given),0.0,0.0
C[C@H]1CN([C@@H](C)CO)C(=O)c2cccc(NC(=O)Nc3ccc(C(F)(F)F)cc3)c2O[C@@H]1CN(C)Cc1ccccc1,·,2.3
Cc1ccc(-n2cc(-c3ccccc3)c3c(N4CCCC4)ncnc32)cc1,0.4,-4.7
CC1(C)[C@@H]2CC=C(CO[C@@H]3O[C@H](CO[C@@H]4O[C@@H](CO)[C@H](O)[C@H]4O)[C@@H](O)[C@H](O)[C@H]3O)[C@H]1C2,-0.2,-2.5
CC(C)n1cnc2c(NCc3ccccc3)nc(NCCO)nc21,0.4,6.6
O=C(c1ccccc1)c1ccc(-c2ccccc2)cc1,-1.9,-2.9
CSc1cccc(NC(=O)c2cc3c(ccc4ccccc43)o2)c1,-2.4,5.3
Cc1ccc(S(=O)(=O)N2N=C(c3ccccc3)CC2c2ccc(Cl)cc2)cc1 (stereo not given),-0.2,8.8
Cc1ccc(C(CC(=O)O)c2ccco2)cc1 (stereo not given),-1.9,-1.2

The final two records of the part above come first, to join the parts.
mol,A1 inhib,BJeLR viability
Cc1ccc(S(=O)(=O)N2N=C(c3ccccc3)CC2c2ccc(Cl)cc2)cc1 (stereo not given),-0.2,8.8
Cc1ccc(C(CC(=O)O)c2ccco2)cc1 (stereo not given),-1.9,-1.2
O=C(O)c1cc(=O)c2ccc(Cl)cc2[nH]1,-0.6,3.6
COc1ccc(CN(C)C[C@H]2Oc3ccc(NC(=O)Nc4ccc(F)cc4)cc3C(=O)N([C@@H](C)CO)C[C@@H]2C)cc1,0.7,-0.1
C[C@@H]1CN([C@@H](C)CO)C(=O)c2cccc(NC(=O)c3ccncc3)c2O[C@@H]1CN(C)S(=O)(=O)c1ccc(Cl)cc1,·,4.2
COc1ccc(NC(=O)N(C)C[C@@H]2Oc3ccc(NC(=O)CCCCCC(=O)Nc4ccccc4N)cc3C(=O)N([C@H](C)CO)C[C@H]2C)cc1,·,-7.7
C[C@H]1CN([C@@H](C)CO)C(=O)c2cccc(NC(=O)Nc3ccc(F)cc3)c2O[C@H]1CN(C)C(=O)Nc1cccc2ccccc12,·,-1.7
Cc1noc(C)c1NC(=O)N(C)C[C@@H]1Oc2ccc(NC(=O)Cn3cnnn3)cc2C(=O)N([C@H](C)CO)C[C@@H]1C,0.7,-0.4
Cc1ccc(NC(=O)CSc2nc3c(c(=O)n2CCc2ccccc2)SCC3)cc1Cl,0.3,-6.9
C[C@H]1CN([C@@H](C)CO)C(=O)c2cccc(NS(=O)(=O)c3ccc(Cl)cc3)c2O[C@@H]1CN(C)C,·,-2.2
CCC(C)(C)C(=O)N1CCC(C(=O)OC)CC1,0.8,-0.4
c1cc(-c2nn[nH]n2)ccc1CN1CCCCC1,0.4,0.8

Complete entries from above. Values in the order: A1 inhib, BJeLR viability
Listed for C[C@H]1CN([C@@H](C)CO)C(=O)c2cccc(NS(=O)(=O)c3ccc(Cl)cc3)c2O[C@@H]1CN(C)C → ·, -2.2
Listed for c1cc(-c2nn[nH]n2)ccc1CN1CCCCC1 → 0.4, 0.8
Listed for COc1ccc(CN(C)C[C@H]2Oc3ccc(NC(=O)Nc4ccc(F)cc4)cc3C(=O)N([C@@H](C)CO)C[C@@H]2C)cc1 → 0.7, -0.1

Following part:
mol,A1 inhib,BJeLR viability
C[C@@H]1CN([C@@H](C)CO)C(=O)c2cc(NC(=O)Nc3ccccc3)ccc2O[C@H]1CN(C)C(=O)Nc1ccc(F)cc1,0.3,-0.3
Cc1ccc(S(=O)(=O)N(C)C[C@H]2Oc3ccc(NC(=O)CCC(F)(F)F)cc3C(=O)N([C@H](C)CO)C[C@@H]2C)cc1,-0.9,6.9
C[C@H]1CN([C@@H](C)CO)C(=O)c2cc(NC(=O)NC3CCCCC3)ccc2O[C@@H]1CN(C)C,-0.8,-1.1
COc1ccc(NC(=O)Nc2ccc3c(c2)C(=O)N([C@H](C)CO)C[C@H](C)[C@@H](CN(C)C(=O)Nc2ccccc2)O3)cc1,-0.2,3.5
Cc1ccc(S(=O)(=O)N(C)C[C@H]2Oc3c(NC(=O)NC(C)C)cccc3C(=O)N([C@H](C)CO)C[C@@H]2C)cc1,·,-0.3
C[C@@H]1CN([C@H](C)CO)C(=O)c2cc(NS(=O)(=O)c3cccs3)ccc2O[C@H]1CN(C)CC1CCCCC1,0.1,3.7
Cc1ccc(S(=O)(=O)Nc2ccc3c(c2)C(=O)N([C@H](C)CO)C[C@H](C)[C@@H](CN(C)S(=O)(=O)c2ccc(F)cc2)O3)cc1,-0.6,-2.7
O=C(Cn1c(=O)c(C(F)(F)F)nc2ccccc21)N1CCc2ccccc21,·,-3.8
c1ccc(-c2nc(N3CCCCCC3)c3ccccc3n2)cc1,-0.4,-0.3
N#Cc1c(-c2ccccc2Cl)c(C#N)c2nc3ccccc3n2c1N,-0.4,24.4
C[C@H](CO)N1C[C@H](C)[C@H](CN(C)S(=O)(=O)c2ccc(Cl)cc2)Oc2c(NC(=O)c3cnccn3)cccc2C1=O,·,-2.9
CC(C)CC(Nc1ncnc2sc3c(c12)CCC3)C(=O)O (stereo not given),0.1,-2.9
CCN1C(=O)c2ccccc2Sc2ccc(NC(=O)N3CCc4ccccc43)cc21,-0.8,3.4
COC(=O)c1ccc2c(c1)NC(=O)CO2,0.7,-1.4
Clc1ccc(C2=NCCc3sccc32)cc1,0.5,0.3
C[C@@H]1CN([C@H](C)CO)C(=O)c2cc(NC(=O)c3ccncc3)ccc2O[C@H]1CN(C)C(=O)Nc1cccc2ccccc12,0.3,-0.7
COc1ccc(NC(=O)Nc2cccc3c2O[C@@H](CN(C)S(=O)(=O)c2cccs2)[C@@H](C)CN([C@H](C)CO)C3=O)cc1,·,-5.0
Cc1ccc2nc(-c3cccc(NC(=O)C4CCCCC4)c3)oc2c1,-0.5,22.2
O=C1C[C@@H](c2ccccc2)Oc2cc(O)cc(O)c21,-2.3,37.1
Cc1ccc(S(=O)(=O)N(C)C[C@@H]2Oc3ccc(NS(=O)(=O)c4ccc(Cl)cc4)cc3C(=O)N([C@H](C)CO)C[C@H]2C)cc1,-0.7,-4.1

Brought forward from above: two entries, followed by the next part.
Sequence of screens – A1 inhib	BJeLR viability
- O=C1C[C@@H](c2ccccc2)Oc2cc(O)cc(O)c21
  -2.3	37.1
- Cc1ccc(S(=O)(=O)N(C)C[C@@H]2Oc3ccc(NS(=O)(=O)c4ccc(Cl)cc4)cc3C(=O)N([C@H](C)CO)C[C@H]2C)cc1
  -0.7	-4.1
- CCC(C)(C)C(=O)Nc1cc(C)cc(C)c1
  0.8	4.1
- CC(C)NC(=O)N(C)C[C@H]1Oc2ccc(NC(=O)Nc3ccc(F)cc3)cc2C(=O)N([C@H](C)CO)C[C@@H]1C
  0.6	-0.5
- Cc1noc(C)c1S(=O)(=O)Nc1ccc2c(c1)C(=O)N([C@H](C)CO)C[C@@H](C)[C@H](CN(C)S(=O)(=O)c1cccs1)O2
  -0.1	-0.7
- CCN1CN=C(Nc2nc(C)c3cc(C)ccc3n2)NC1
  ·	9.7
- CCC(C)NS(=O)(=O)c1cccs1 (stereo not given)
  ·	-3.3
- CCn1c(=O)c2cc(C(=O)N(Cc3ccccc3)C(C)C)sc2c2ccccc21
  ·	-2.5
- Cc1nn(-c2ccccc2)nc1C(=O)N(C)c1nnc(C(F)(F)F)s1
  -0.5	2.0
- Clc1ccc(-c2nc(N3CCCCC3)c3ccccc3n2)cc1
  0.0	3.8
- Cc1ccc(S(=O)(=O)N(C)C[C@@H]2Oc3c(NC(=O)c4ccc(-c5nccs5)cc4)cccc3C(=O)N([C@H](C)CO)C[C@H]2C)cc1
  ·	-3.0
- C[C@@H]1CN([C@@H](C)CO)C(=O)c2cc(NS(=O)(=O)c3ccc(Cl)cc3)ccc2O[C@H]1CN(C)S(=O)(=O)c1cn(C)cn1
  -0.6	5.5
- CCCCN(C)S(=O)(=O)c1ccc(C)c(-c2nnc3c4ccccc4c(C)nn23)c1
  ·	-5.9
- C=C(C)C(O)Cc1c(OC)cc2oc(=O)ccc2c1OC (stereo not given)
  1.0	1.1
- C=C1C(=O)O[C@H]2C1CCC(C)=C1C(=O)C=C(C)[C@@H]12 (stereo not given in full)
  -1.4	-2.2
- N#Cc1c(C(F)(F)F)cc(-c2cccs2)oc1=S
  -0.1	1.9
- O=S(=O)(Nc1ccccc1C(F)(F)F)c1ccc2c(c1)CCO2
  0.0	2.0
- C[C@@H]1CN([C@@H](C)CO)C(=O)c2cc(NC(=O)CCC(F)(F)F)ccc2O[C@H]1CN(C)C(=O)Nc1ccc2c(c1)OCO2
  -0.6	1.0
- COc1cc2ccccc2cc1C(=O)Nc1ccc2c(c1)OCCO2
  -2.3	1.2
- C[C@@H]1CN([C@H](C)CO)C(=O)c2cccc(NC(=O)Nc3ccc4c(c3)OCO4)c2O[C@@H]1CN(C)Cc1ccc(C(=O)O)cc1
  ·	-2.9
- O=C(O)c1ccccc1C(=O)NC1CCN(c2nccc(C(F)(F)F)n2)CC1
  ·	-3.6
- C[C@H]1CN([C@@H](C)CO)C(=O)c2cccc(NC(=O)Nc3ccc(C(F)(F)F)cc3)c2O[C@H]1CN(C)Cc1ccc2c(c1)OCO2
  ·	-0.1
- Cc1ccc(S(=O)(=O)N(C)C[C@@H]2Oc3ccc(NC(=O)Nc4ccc(C(F)(F)F)cc4)cc3C(=O)N([C@H](C)CO)C[C@@H]2C)cc1
  0.2	2.0
- C[C@H](CO)N1C[C@H](C)[C@@H](CN(C)C)Oc2c(NS(=O)(=O)c3ccccc3)cccc2C1=O
  ·	3.0
- CC1C(=O)ON(c2ccccc2)C(=O)N1C (stereo not given)
  0.9	1.2
- C[C@@H]1CN([C@H](C)CO)C(=O)c2cc(NC(=O)CCCCCC(=O)Nc3ccccc3N)ccc2O[C@@H]1CN(C)S(=O)(=O)c1cccs1
  ·	10.2
- CC(C)NC(=O)Nc1ccc2c(c1)C(=O)N([C@H](C)CO)C[C@@H](C)[C@@H](CN(C)C(=O)NC(C)C)O2
  0.0	2.9
- Cc1ccc(S(=O)(=O)Nc2cccc3c2O[C@@H](CN(C)C(=O)Nc2cccc4ccccc24)[C@@H](C)CN([C@@H](C)CO)C3=O)cc1
  ·	-2.5
- C[C@H](CO)N1C[C@H](C)[C@H](CN(C)Cc2ccc(-c3ccccc3)cc2)Oc2ccc(NC(=O)CCC(F)(F)F)cc2C1=O
  0.2	-6.0
- CCc1ccccc1NC(=O)CC1CS(=O)(=O)CC1CC(=O)Nc1ccccc1CC (stereo not given)
  -0.1	-2.5
- COc1ccc(NC(=O)N(C)C[C@H]2Oc3c(NS(=O)(=O)c4ccc(Cl)cc4)cccc3C(=O)N([C@@H](C)CO)C[C@@H]2C)cc1
  ·	-7.3
- C[C@H]1CN([C@@H](C)CO)C(=O)c2cc(NC(=O)Nc3ccc(C(F)(F)F)cc3)ccc2O[C@@H]1CN(C)S(=O)(=O)c1ccccc1
  0.9	-3.3
- CCC(NS(=O)(=O)c1cc(C)ccc1OC)C12CC3CC(CC(C3)C1)C2 (stereo not given)
  -0.6	-0.9
- CNC[C@@H]1Oc2c(NS(=O)(=O)c3cn(C)cn3)cccc2C(=O)N([C@H](C)CO)C[C@@H]1C
  ·	-6.4
- C[C@@H]1CN([C@@H](C)CO)C(=O)c2cccc(NC(=O)Nc3cccc4ccccc34)c2O[C@@H]1CN(C)Cc1ccc(C(F)(F)F)cc1
  ·	0.7
- Cc1ccccc1CN1C(=O)C(O)(CC(=O)/C=C\c2ccccc2)c2ccccc21 (stereo not given)
  3.8	2.1
- CC(C)(C)N1Sc2ccccc2NC1=S
  -1.1	12.6
- C[C@H](CO)N1C[C@H](C)[C@@H](CN(C)C)Oc2ccc(NC(=O)Nc3ccc(F)cc3)cc2C1=O
  -0.5	-1.8
- CNC(=S)N1CCc2sccc2C1c1ccc(Cl)cc1 (stereo not given)
  -0.2	21.2
- C[C@H](CO)N1C[C@H](C)[C@H](CN(C)C)Oc2c(NC(=O)c3cnccn3)cccc2C1=O
  ·	-0.1
- COC(=O)C1c2c(oc3cc(CO)cc(O)c3c2=O)C=CC1O (stereo not given)
  0.9	0.4
- O=c1[nH]nc(SCc2ccc(Cl)cc2)n1C1CC2C=CC1C2 (stereo not given)
  -0.7	3.9
- Cn1nc(-c2ccc(N3CCCCC3)c(NC(=O)c3ccccc3)c2)c2ccccc2c1=O
  ·	-4.0
- C[C@@H]1CN([C@H](C)CO)C(=O)c2cccc(NC(=O)NC3CCCCC3)c2O[C@H]1CN(C)Cc1ccc(C(=O)O)cc1
  ·	-3.3
- C[C@H](CO)N1C[C@H](C)[C@H](CN(C)S(=O)(=O)c2ccc(Cl)cc2)Oc2ccc(NS(=O)(=O)c3cccs3)cc2C1=O
  0.9	-0.7
- C[C@@H]1CN([C@H](C)CO)C(=O)c2cccc(NC(=O)c3ccncc3)c2O[C@H]1CN(C)Cc1ccc2c(c1)OCO2
  ·	-5.2
- C[C@H]1CN([C@@H](C)CO)C(=O)c2cc(NC(=O)C3CC3)ccc2O[C@H]1CN(C)C
  -0.7	1.5
- O=S(=O)(Nc1cccc(C2OCCCO2)c1)c1ccccc1
  -0.8	-0.4
- O=c1cc(Nc2ccc3c(c2)OCO3)[nH]c(=O)n1-c1ccc(Br)cc1
  ·	2.4
- CN(CC(=O)NCc1ccccn1)S(=O)(=O)c1cc(Br)cnc1N
  0.2	0.2
- Cc1nc(C(F)(F)F)ccc1C(=O)NCC1CC1
  ·	-0.8
- Cc1cc2ncc(C(=O)/C=C/N(C)C)c(C)n2n1
  0.1	-3.2

Compound activity (PubChem BioAssay)
